Menin MLL FP FL – displaces fluorescein MLL peptide from human menin; Fluorescence polarization, fluorescein-MLL peptide displacement from menin; FP activity change, % at 61.4 µM; 290,000 tested, under 10 active; inconclusive = falling polarisation curve, or a change in total fluorescence; inactive = total fluorescence flat and polarisation flat or rising; no compound was filed as active; the % refers to the polarisation; negative = inhibition;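 also: % of control where 0% means no effect; inhibitors lower the polarisation; unlabelled MLL peptide was the positive control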
TRPML1 blocker – blocks the human TRPML1 channel | Q9GZU1 | TRPML1-inducible cells, Ca2+ dye fluorescence, FDSS; active compounds read low; inhibition of EC80 agonist-evoked calcium signal | activity change, negative = inhibition, % (no concentration beside the values) | 0.02% of 390,000 active | AID 624415; in the data active means activity change below about -50%; inconclusive means about -30% to -50%; inactive means above about -30%;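 also: stimulus is agonist 54-4 at its EC80 concentration; % is scaled to controls: 0 for no effect and ±100 for the full control effect; compound concentration not given in the record; the text of the record puts the active cut at -80%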
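Tet-induced TRPML1-DL cells loaded with Ca8 no-wash calcium dye were read kinetically on FDSS. Compound addition was followed by EC80 agonist 54-4 (4 uM final); inhibition was read over 110 s.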
TRPV1 PAM – potentiators of human vanilloid receptor 1 (TRPV1); Q8NER1; TRPV1-expressing cells, Fluo-8 calcium influx, capsaicin EC20 potentiation; host cell line not named in the record; control for the full effect not named in the record; potentiation, % at 8.33 µM; 0.02% of 320,000 active; active means potentiation above 80%; inconclusive means 30% to 80%; inactive means below 30%; also: 0% is about no effect
Target sequence (Q8NER1 whole entry, looked up): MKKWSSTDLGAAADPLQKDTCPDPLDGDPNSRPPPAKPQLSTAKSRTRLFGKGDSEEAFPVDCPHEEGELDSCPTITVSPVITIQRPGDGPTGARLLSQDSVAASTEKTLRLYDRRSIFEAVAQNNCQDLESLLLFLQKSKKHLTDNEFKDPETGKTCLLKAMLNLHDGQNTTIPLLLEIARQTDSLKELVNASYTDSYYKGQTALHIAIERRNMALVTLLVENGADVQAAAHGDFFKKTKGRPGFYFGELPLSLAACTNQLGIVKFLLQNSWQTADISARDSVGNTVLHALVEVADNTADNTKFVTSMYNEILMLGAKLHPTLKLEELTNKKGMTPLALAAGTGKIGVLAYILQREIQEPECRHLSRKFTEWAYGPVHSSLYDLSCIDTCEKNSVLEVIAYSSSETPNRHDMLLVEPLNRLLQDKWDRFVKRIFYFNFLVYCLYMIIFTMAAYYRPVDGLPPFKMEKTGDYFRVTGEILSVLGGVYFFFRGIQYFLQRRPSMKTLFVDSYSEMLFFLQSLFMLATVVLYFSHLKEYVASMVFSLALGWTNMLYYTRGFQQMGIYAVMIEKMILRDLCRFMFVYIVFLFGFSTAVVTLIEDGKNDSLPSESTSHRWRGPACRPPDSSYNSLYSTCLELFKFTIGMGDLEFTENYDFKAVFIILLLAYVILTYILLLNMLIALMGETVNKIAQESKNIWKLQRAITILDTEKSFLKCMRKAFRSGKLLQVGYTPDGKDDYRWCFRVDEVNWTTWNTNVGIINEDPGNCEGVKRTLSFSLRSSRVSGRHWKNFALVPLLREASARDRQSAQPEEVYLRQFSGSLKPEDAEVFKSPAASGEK
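TRPV1-expressing cells were cultured overnight at 35.5C and loaded with Fluo-8 calcium dye for 40 to 90 min at room temperature. After a 10 s baseline, compound was added and calcium influx was read kinetically for 3 min (ex 480/em 520 nm).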
gsp agonist – gsp mutant agonism. Potency, µM (series often up to 76.9 µM), without a hit: top-dose activation (cAMP increase), usual class: activators. gsp mutant cells, cAMP HTRF, 30 min; control for the full effect not named in the record. 0.13% of 340,000 active; active = well fitted activation curve with a large enough effect; inconclusive = small, poorly fitted or top-dose-only effect, or another doubt; inactive = no such curve, though single readings can be large or run the other way; cell line not stated here;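 also: phosphodiesterase inhibitor Ro 20-1724 added with compounds to block cAMP breakdown; potency is read from the fitted curve at half-maximal effect; nearly all actives have a fitted effect of over 60% in size; about a fifth of the inactives were tested at one dose only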
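Cells stably selected in G418 were plated at 2000/well, grown 16-24 hr, then given compounds in DMSO with the PDE inhibitor […] (300 uM solution added) for 30 min at 37C; cAMP was read by HTRF.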
gsp antag – gsp mutant antagonism. 0.4% of 340,000 active. gsp-mutant cells, cAMP HTRF, 30 min; control for the full effect not named in the record. Potency, µM (series often up to 76.9 µM), inactives show at the highest dose activity change, negative = inhibition, usual class: inhibitors; active = falling curve of any shape with a large fitted effect; inconclusive = falling curve, mostly with a smaller effect; inactive = flat or rising curve; cell line not stated here;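 also: intracellular cAMP measured with PDE inhibitor Ro 20-1724 present during compound exposure; potency is read from the fitted curve at half-maximal effect; % is scaled to controls: 0 for no effect and ±100 for the full control effect; nearly all actives have a fitted effect of over 65% in size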
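HTRF cAMP read-out (cAMP-d2 plus anti-cAMP antibody-K in lysis buffer, 30 min RT). Before lysis, cells are exposed to compounds with […] for 30 min at 37C in DPBS containing Ca/Mg, BSA and Tween 20.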
Sfp PPTase inh – blocks B. subtilis Sfp PPTase activity; Q9F4F7; Biochemical Sfp PPTase activity, qHTS; Potency, µM, without a hit: max response, negative = inhibition, hits mostly inhibitors; 3.5% of 310,000 active; AID 1490; active = well fitted inhibition curve with a large enough effect; inconclusive = small, poorly fitted or top-dose-only effect, or another doubt; inactive = no such curve, though single readings can be large or run the other way;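 also: the enzyme is Sfp with the accession as filed and its product quenches rhodamine fluorescence; potency is read from the fitted curve at half-maximal effect; 0% = enzyme reaction without inhibitor and -100% = no enzyme wells; top concentration of the series not given in the record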
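With Hepes-Na pH 7.6 buffer containing 10 mM MgCl2, Sfp (15 nM) modified BHQ-2-YbbR (12.5 uM) using rhodamine-CoA (5 uM). Two reads 30 minutes apart at 525/598 nm yielded each well's rate.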
ClpP mod – qHTS Assay for Activators of ClpP; 1.9% of 340,000 active; Potency, µM (top dose mostly 57.5 µM), for inactives: at the top dose activity change, negative = active; AID 651965, 2013; purified B. subtilis ClpP, FRET peptide cleavage, 20 min; ATP-dependent Clp protease proteolytic subunit (Bacillus subtilis (strain 168)), P80244; active = well fitted falling curve with a large enough effect; inconclusive = small, poorly fitted or top-dose-only effect; inactive = no such curve, though single readings can be large or run the other way; also: potency is read from the fitted curve at half-maximal effect; the source files actives as falling curves though it sought activators and does not explain the sign; nearly all actives have a fitted effect of over 65% in size; many hits overshoot -100%
Target sequence (P80244 whole entry, looked up): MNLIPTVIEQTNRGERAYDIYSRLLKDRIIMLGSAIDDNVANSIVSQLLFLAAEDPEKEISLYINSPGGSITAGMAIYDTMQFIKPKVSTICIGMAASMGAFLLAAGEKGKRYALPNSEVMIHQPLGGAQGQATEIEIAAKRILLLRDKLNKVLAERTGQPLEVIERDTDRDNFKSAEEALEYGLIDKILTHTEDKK
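FRET quenching reversal measured ClpP activation: 10 microg/mL B. subtilis ClpP at pH 8 with the FRET-FV decapeptide, read at 430 nm after 320 nm excitation. The 20-min minus 0-min signal was scaled between DMSO/no-enzyme wells and ADEP (5.8 microM final).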
The depositor's hits bear a star; ? = inconclusive; . = no result given; [ ] = dose if it differs, or a comment.

Molecule	TRPML1 blocker	Sfp PPTase inh	TRPV1 PAM	gsp antag	Menin MLL FP FL	gsp agonist	ClpP mod
O=C(CNc1cccc(S(=O)(=O)N2CCCC2)c1)Nc1cccc(C(F)(F)F)c1	37	.	.	-11%	.	-27%	-0.9%
O=C(NC(Cc1cccc(F)c1)C(=O)O)C1CCCCC1 (stereo not given)	-1	.	-1	-2%	.	.	-0.6%
COc1ccccc1NC(=O)Nc1nc(CC(=O)N2CCN(c3ccc(F)cc3)CC2)cs1	33	.	10	-27%	.	-57%[inhibitor]	-2.0%
NS(=O)(=O)c1ccc(CCNC(=O)CSc2nc3c(sc(=S)n3-c3ccccc3)c(=O)[nH]2)cc1	-15	.	.	.	.	-74%[inhibitor]	0.0%
COc1ccc(Cc2nnc(NS(=O)(=O)c3ccccc3)s2)cc1	12	-2%	15	-5%	5.7	0%	.
C[C@H]1CN([C@@H](C)CO)C(=O)Cc2cc(NC(=O)Cc3ccccc3)ccc2O[C@H]1CN(C)C(=O)Nc1cccc2ccccc12	-2	.	.	3%	.	.	?
COC(=O)c1c(C)[nH]c(C(=O)CN2C(=O)C3CC=CCC3C2=O)c1C (stereo not given)	6	.	.	-6%	.	-8%	-9.3%
O=C(NCC(c1cccnc1)N1CCOCC1)Nc1ccccc1 (stereo not given)	-2	3%	20	3%	-2.6	-2%	-1.2%
CN(C)c1ccc(CNC(=O)CN(C)S(=O)(=O)c2cccc3cccnc23)cc1	6	-2%	6	-4%	-1.2	-48%[inhibitor]	1.9%
Cc1c(NC(=O)C2CCN(S(=O)(=O)c3ccccc3)CC2)c(=O)n(-c2ccccc2)n1C	-7	14%	6	3%	0.7	0%	-5.5%
COC(=O)C1=CN(c2ccc(OC)cc2)C=C(C(=O)OC)C1c1cccc(F)c1	.	10%	-2	-6%	3.3	0%	4.0%
COc1ccc(C(C#N)CC(=O)c2ccc(OCc3ccccc3)c(OC)c2)cc1OC (stereo not given)	9	.	.	.	.	8%	-5.8%
COc1ccccc1C(=O)NC(=O)COC(=O)c1cnc(C)cn1	0	.	-8	0%	.	-21%	-26%
O=C(NN1C(=O)c2ccccc2C1=O)c1ccccc1[N+](=O)[O-]	-28	16%	-1	8%	0.1	-17%	-1.6%
CCOC(=O)C1C(C)N=C2SCC(=O)N2C1c1cccc(Br)c1 (stereo not given)	5	12%	3	-12%	12	-21%	0.7%
CCCCN1C=C(C(=O)OC)C(c2ccccc2Cl)C(C(=O)OC)=C1	6	9%	-20	-16%	-3.6	-8%	3.9%
Cc1ccc(-n2ncc(C#N)c2/N=C/N(C)C)cc1	10	15%	-10	4%	4.3	-8%	0.3%
Cc1cc2cc(C(c3nnnn3Cc3ccco3)N3CCCCC3)c(=O)[nH]c2cc1C (stereo not given)	5	40µM*	7	6%	13	-10%	-4.6%
Cc1nnc(SCc2ccc(C(=O)c3ccc(Cl)cc3)o2)n1-c1ccccc1	23	3%	-3	-14%	-0.7	-14%	-1.6%
Cc1ccc(C(=O)NCCOc2cccc(C)c2)cc1	0	9%	-9	2%	-1.4	5%	-0.8%
CC(=O)N(c1ccc(C(F)(F)F)cc1)S(=O)(=O)c1ccc(N2C(=O)CCC2=O)cc1	17	8%	-6	1%	.	?	1.0%
COc1ccc(C(CNC(=O)Cc2cc(OC)c(OC)c(OC)c2)N2CCCC2)cc1 (stereo not given)	-12	11%	-1	11%	-2.0	17%	-0.9%
COCCCNC(=O)C(=O)NCCCOC(C)C	8	21%	12	-24%	-2.6	-40%[inhibitor]	-2.3%
CCOC(=O)N1CCN(C(=O)C2CCN(S(=O)(=O)c3c(C)cc(C)cc3C)CC2)CC1	-20	-3%	0	-11%	-1.6	14%	-4.2%
CCOC(=O)Nc1c(C)n(C)n(-c2ccccc2)c1=O	5	2%	-3	4%	-3.0	1%	-1.7%
Cn1c(=O)c(C(=O)CSc2ccccc2)c(N)n(Cc2ccccc2)c1=O	4	14%	-4	.	0.0	-8%[15.4 µM]	.
CN(C)C=Nc1ccc2nc3c(cc2c1)[nH]c1ccccc13	-17	0%	-2	-13%	-9.7	?	4.0%
CCCCN(C)C(=O)Cn1nc(-c2ccc(Cl)cc2)ccc1=O	-6	6%	-3	1%	-7.0	?	.
COc1cc(C2C(C(C)=O)=C(O)C(=O)N2CCN2CCOCC2)ccc1O (stereo not given)	26	-2%	8	4%	0.2	?	-2.8%
O=C(CCCC(=O)NN=Cc1ccccc1Cl)NN=Cc1ccccc1Cl	-7	.	.	-14%	.	-20%	1.7%
Cc1ccc2cccc(OCc3ccc(F)cc3)c2n1	4	9%	6	-15%	-4.2	15%	-21%
COc1ccccc1C(=O)NCc1ccncc1	18	10%	-21	-21%	1.1	-1%	-2.7%
CC(=O)COc1ccccc1OC(=O)c1ccco1	2	12%	9	-2%	0.3	0%	0.0%
CCCCCCc1nc2ccccc2c(=O)n1NC(=O)c1c(O)c2cccc3c2n(c1=O)CCC3	.	11%	7	.	0.0	.	.
Cc1nc(CC(C)C)cc(C(=O)N2CCCC(CNS(=O)(=O)c3cccs3)C2)n1 (stereo not given)	18	7%	-5	-8%	-1.1	-26%	1.0%
COc1ccc(N2CCN(C(CNC(=O)c3ccco3)c3ccco3)CC2)cc1 (stereo not given)	7	.	10	7%	.	?	-6.2%
COc1ccc(N2CCN(C(c3cccs3)C(C)NC(=O)C(=O)N3CCCCC3)CC2)cc1 (stereo not given)	5	3%	-9	-3%	1.6	20%	-4.3%
Cc1ccc(NC(=O)N2CCc3ccccc3C2)c(C)c1	4	11%	-6	-22%	-0.4	-25%	2.1%
O=C1NC2(Nc3ccccc31)C(=O)Nc1ccc(Br)cc12 (stereo not given)	22	10%	2	-2%	-4.1	?	-26%
COc1cc(/C=C2/C(=N)N3N=C(CC(=O)N4CCOCC4)SC3=NC2=O)ccc1OC(C)c1ccccc1 (stereo not given)	38	24%	-4	?	6.9	-3%	-2.4%
CCOC(=O)N1CN(C(=O)OCC)CN(C(=O)OCC)C1	4	4%	-2	-2%	-3.2	-5%	-0.9%
CCc1nc2ccccc2c(C(=O)OCc2nnc(-c3ccccc3)o2)c1C	14	?	-8	-4%	2.6	-61%[inhibitor]	-4.4%
COc1ccc(C(=O)N/N=C(\C)CC(=O)N2CCN(C=O)CC2)cc1	-10	-20%	-11	0%	3.4	7%	1.1%
Cc1ccc(S(=O)(=O)NCCCNS(=O)(=O)c2ccc(C)cc2)cc1	13	.	7	1%	.	-42%[inhibitor]	-1.1%
COc1ccc(OC)c(N(CC(=O)NCCSC2CCCCC2)S(=O)(=O)c2ccccc2)c1	26	3%	-4	-24%	.	-36%[inhibitor]	1.2%
Cc1nc2sccn2c(=O)c1S(=O)(=O)N1CCN(c2cccc(Cl)c2)CC1	-2	-3%	-14	-6%	-3.0	-45%[inhibitor]	-2.4%
O=C(N1CCCCC1)N1CCN(S(=O)(=O)c2ccccc2)CC1	6	11%	-15	6%	0.0	19%	-0.1%
CC(C)(C)NC(=O)CN(Cc1cccs1)C(=O)CCN1CCc2ccccc21	-14	12%	-9	2%	1.7	3%	-1.2%
O=C(CSCC(=O)N1CCOCC1)Nc1nc(-c2ccccc2)cs1	17	5%	4	-15%	1.2	?	.
CN(C(=O)COc1ccccc1C(=O)NCc1ccccc1)C1CCS(=O)(=O)C1 (stereo not given)	-11	.	?	3%	.	13%	-20%
CCOc1ccc(-c2nc(C)sc2CC(=O)O)cc1	-11	19%	7	-8%	1.0	-1%	1.5%
COC(=O)c1cc(C(=O)NCCN2C(=O)S/C(=C\c3cccs3)C2=O)cc([N+](=O)[O-])c1	-8	-1%	5	9%	-1.7	?	-9.0%
COc1ccc(C(=O)Nc2ccc(-c3n[nH]c(=S)o3)cc2)cc1OC	2	16µM*	-7	-4%	-10	20%	-15%
Cc1ccc(/C=C/C(=O)OCC(=O)NCCN2C(=O)CSC2=O)cc1	-25	-8%	0	-6%	1.0	61%	.
CCNc1ccc(C(=O)OCC(=O)N2CCCC2)cc1[N+](=O)[O-]	-14	23%	-3	-6%	-3.1	7%[15.4 µM]	98%
CC(=O)N1Cc2cc(N)ccc2Oc2ccccc21	4	8%	6	9%	0.0	7%	.
Cc1ccc(C(C)C)cc1S(=O)(=O)NC1CC(C)(C)NC(C)(C)C1	35	5%	-6	12%	0.0	-39%[inhibitor]	.
CCCc1nnc(SCC(=O)Nc2cc(C)on2)n1CCOC	-3	-29%	13	5%	-1.3	9%[15.4 µM]	.
CCC(=O)Nc1ccc(Cl)c(NC(=O)C(C)C)c1	-19	33%[activator]	7	3%	-0.3	12%	-0.8%
COc1ccc(CNC(=S)Nc2ccc(S(N)(=O)=O)cc2)cc1	74	50µM*	7	-6%	-4.2	-49%[inhibitor]	1.0%

(further entries)
Molecule	TRPML1 blocker	Sfp PPTase inh	TRPV1 PAM	gsp antag	Menin MLL FP FL	gsp agonist	ClpP mod
Cc1ccccc1CCNC(=O)C1CCC(=O)N(C2CCCCCC2)C1 (stereo not given)	13	9%	11	9%	.	-9%	1.0%
CC(C)NC(=O)COc1coc(CN2CCN(Cc3ccccc3)CC2)cc1=O	3	16%	-3	7%	.	2%	.
CC(C)OC(=O)c1ccc(S(N)(=O)=O)o1	-7	5%	23	9%	-1.0	3%	-1.5%
O=c1c2c(ncn1Cc1ccccc1)nc1n2CCC1	-9	-8%	5	9%	-1.5	?	-0.8%
COc1ccc(OC)c(C2=NOC(C(=O)Nc3cc(C)on3)C2)c1 (stereo not given)	.	-4%	23	9%	4.8	16%	-15%

Only TRPV1 PAM (two entries from above):
SMILES	TRPV1 PAM
O=c1c2c(ncn1Cc1ccccc1)nc1n2CCC1	5
COc1ccc(OC)c(C2=NOC(C(=O)Nc3cc(C)on3)C2)c1 (stereo not given)	23

Source: PubChem BioAssay
